Screening data (PubChem)
Rango release inh = qHTS Assay for Inhibitors of RanGTP induced Rango (Ran-regulated importin-beta cargo) - Importin beta complex dissociation; Potency, µM (doses to about 46.1 µM), for inactives: top-dose activity change, negative = inhibition; Biochemical FRET Rango-importin beta, RanGTP-induced dissociation; Snurportin-1 (Homo sapiens) + GTP-binding nuclear protein Ran (Homo sapiens) + Importin …; 0.071% of 340,000 active; active means falling FRET ratio curve, often poorly fitted, with flat reads before Ran was added; inconclusive means other falling curves, or compound fluorescence or quenching; inactive means flat or rising ratio curve;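 further: potency means the concentration at half of the fitted maximal effect; % of control where 0% means no effect; nearly all actives have a fitted effect of over 45% in size; -100% = wells without RanGTP and RCC1; the record marks most hits as doubtful in a second field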
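Rango (0.1 uM)–importin beta (0.25 uM) complex; RanGTP-RCC1 trigger; 45 min RT; CFP/YFP FRET read.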
miR-21 FLuc = qHTS Assay for Modulators of miRNAs and/orActivators of miR-21; HeLa miR-21 FLuc reporter, luciferase, 48 h; 340,000 tested, under 10 active; Potency, µM (series often up to 38.3 µM), for the others: at the highest dose reporter change, positive = more light; active = well fitted rising curve with a large enough effect; inconclusive = small, poorly fitted or top-dose-only effect; inactive = no such curve, though single readings can be large or run the other way;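 further: % of control where 0% means no effect; miR-21 action dims this reporter so a rising signal means less miR-21 action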
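HeLa cells stably expressing CMV-driven firefly luciferase with a downstream miR-21 binding sequence, endogenously expressing miR-21, were treated with titrations (up to about 40uM final) for 48 hours at 37 degree Celsius. Luciferase luminescence was read after lysis.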
Rango-impB inh = qHTS Assay for Inhibitors of Rango (Ran-regulated importin-beta cargo) - Importin beta complex formation. Potency, µM (doses to about 92.2 µM), inactives show top-dose inhibition of complex formation. Rango CFP/YFP FRET sensor + importin beta, 45 min. 0.031% of 340,000 active. Importin subunit beta-1 (Homo sapiens), Q14974. AID 540263, 2011; active = rising FRET ratio curve, often small or poorly fitted; inconclusive = mostly compound fluorescence or quenching in the first reads; inactive = flat curves in all reads;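 further: potency means the concentration at half of the fitted maximal effect; 0% = DMSO wells and 100% = buffer wells lacking importin beta; nearly all actives have a fitted effect of over 15% in size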
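FRET biosensor (snurportin 1 IBB flanked by EYFP and cerulean), 50 nM, with compound 5 min, then 0.125 microM importin beta in PBS, 1 mM DTT, 0.02% Tween-20, 0.1% BSA. CFP/YFP ratio read after 45 min at room temperature; pre-read flags interference.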
GLA inh pH 4.5 = qHTS Assay for Inhibitors of Human alpha-Galactosidase at pH 4.5; activity change, negative = inhibition, % at 105 µM; AID 1467, 2008; 230,000 tested, under 10 active; Alpha-galactosidase A (Homo sapiens), P06280; purified enzyme, 4-MU-alpha-Gal fluorescence, pH 4.5; inconclusive = small, poorly fitted or top-dose-only inhibition, or a rising curve; inactive = flat fitted curve, though single readings scatter; no compound was filed as active;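 further: 0% = full activity with enzyme and -100% = basal without enzyme; dose as in the result columns while the protocol names 77 µM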
Target sequence (P06280 whole entry, looked up): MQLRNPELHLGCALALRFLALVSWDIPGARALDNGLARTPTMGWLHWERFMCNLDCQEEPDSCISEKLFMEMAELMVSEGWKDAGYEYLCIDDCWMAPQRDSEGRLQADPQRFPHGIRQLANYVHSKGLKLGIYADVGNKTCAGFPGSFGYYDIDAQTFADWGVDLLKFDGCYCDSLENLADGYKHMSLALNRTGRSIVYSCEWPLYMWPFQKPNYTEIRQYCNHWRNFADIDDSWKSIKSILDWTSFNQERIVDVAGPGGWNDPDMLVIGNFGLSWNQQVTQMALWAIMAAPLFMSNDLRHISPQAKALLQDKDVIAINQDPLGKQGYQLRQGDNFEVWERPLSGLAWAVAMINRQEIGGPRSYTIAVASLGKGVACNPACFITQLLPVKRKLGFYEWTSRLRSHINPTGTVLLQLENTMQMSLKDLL
Starred values were filed as active, the others as inactive; u = inconclusive; x = not tested or not shown; & = joins results of further samples. Only part of the results is shown; the hit share may differ from the screen's.

SMILES	Rango release inh	miR-21 FLuc	Rango-impB inh	GLA inh pH 4.5
CN1CCN(C(=S)NC(=O)c2ccc(C(C)(C)C)cc2)CC1	1%	-9%	-0.2%	7
O=[N+]([O-])c1cnc2ccccn12	-11%	-1%	-3.7%	-5
CC(C)c1ccc(NC(=O)c2ccc3snnc3c2)cc1	21%	-18%	2.3%	x
COc1ccc(CSCC(=O)N/N=C/c2ccccc2O)cc1	29%	20%	0.5%	10
CC(C)(C)NC(=O)/C=C/c1ccc(C(F)(F)F)cc1	45%	-26%	4.7%	5
COc1ccc(N=C2SC(C(N)=O)CC(=O)N2CCc2ccc(OC)c(OC)c2)cc1 (stereo not drawn)	-25%	-7%	-1.5%	-22
O=C1CSC(c2cccnc2)N1c1ccccc1 (stereo not drawn)	10%	0%	6.8%	0
Cc1nc(NC(=O)c2ccccc2O)sc1C	-4%	-35%	u	x
O=C(O)COc1cnc2ccccc2n1	22%	2%	2.3%	-4
NCC(O)COc1ccc2c(c1)OCO2 (stereo not drawn)	-9%	-11%	2.1%	1
Cc1ccc(NC(=O)C2CC(O)CN2C(=O)OCc2ccccc2)cc1C (stereo not drawn)	-7%	0%	2.7%	x
Cc1ccc(CN(CC(O)COc2cccc3[nH]cc(C)c23)C(C)(C)C)cc1 (stereo not drawn)	-3%	13%	2.0%	x
Cc1cccc(OC(C)C(=O)Nc2ccccc2C(=O)N2CCCCC2)c1 (stereo not drawn)	7%	9%	5.0%	x
O=C(NCCc1c[nH]c2ccccc12)/C(=C\c1cccnc1)NC(=O)c1cccs1	13%	-4%	3.0%	-5
CC(=O)OCP(C)(=O)COC(C)=O	-21%	1%	0.0%	1
O=C(NC(=S)Nc1nc(-c2cccc3ccccc23)cs1)c1cc2ccccc2o1	u	0%	3.8%	1
CC(C)(C)c1ccc(C(=O)N2CCC(C(=O)NCc3ccncc3)CC2)cc1	0%	-8%	0.0%	-5
O=C(COc1ccc(Cl)cc1)Nc1cccc(S(=O)(=O)NC2=NCCCCC2)c1	19%	x	2.2%	x
CSCc1c(C(=O)NC2CCCc3ccccc32)oc2ccccc12 (stereo not drawn)	2%	-8%	-1.0%	3
Cc1ccc(NC(=O)c2cc([N+](=O)[O-])ccc2N2CCOCC2)cc1C	1%	-7%	-2.1%	x
Cc1nc2sccn2c(=O)c1S(=O)(=O)NCCc1ccc(Cl)cc1	39%	-1%	-0.2%	x
C=CC[C@@H]1C=C[C@H](O/N=C/c2ccc(C(=O)N3[C@H](c4ccc(C)cc4)[C@@H](C)CC[C@H]3C(=O)OC)cc2)[C@@H](CO)O1	x	14%	x	-23
CCCCn1c(N)c(N(CCOC)C(=O)CCNC(=O)c2ccccc2Cl)c(=O)[nH]c1=O	8%	-4%	-0.1%	x
Cn1ccnc1CN1CCN(C(=O)c2cc(COc3ccc(F)c(F)c3)on2)CC1	-2%	-13%	5.0%	x
Cc1ccc(S(=O)(=O)N2CCN(C(=O)COC(=O)COc3ccccc3)CC2)cc1	5%	0%	0.2%	4

Next part
SMILES	Rango release inh	miR-21 FLuc	Rango-impB inh	GLA inh pH 4.5
COc1ccc(C2CC3(O)NC(=O)C(C#N)(C3C)C2(C#N)C#N)cc1 (stereo not drawn)	-24%	2%	-4.9%	10
Cc1cc(C)n(-c2cc(Cl)ccc2[N+](=O)[O-])n1	-16%	-5%	2.6%	11
CS(=O)(=O)N1CCN(C(=O)c2ccncc2)CC1	-7%	-5%	-1.0%	2
COc1cccc(F)c1C(C[N+](=O)[O-])c1c(N)n(C)c(=O)n(C)c1=O (stereo not drawn)	2%	u	-5.1%	3
Cc1coc2c(C)c3oc(=O)c(CCC(=O)N4C[C@H]5C[C@@H](C4)c4cccc(=O)n4C5)c(C)c3cc12	-3%	-3%	0.3%	x
O=C(NCc1ccc2c(c1)OCO2)c1cc([N+](=O)[O-])ccc1N1CCOCC1	-12%	x	-1.0%	x
CC(=O)c1sc(NC(=O)c2ccccc2F)nc1C	10%	-7%	-0.5%	-15
CCSC(=O)N1c2ccc(OC)cc2C=CC1C#N (stereo not drawn)	-16%	x	-4.9%	x
CNC(=S)N/N=C(\C)c1ccc2c(c1)OCCO2	-8%	-22%	-1.0%	4
C#CCOCCOCCOCCNc1nc(N2CCN(C(=O)[C@H](CCC(=O)O)n3cc([C@@H](N)CO)nn3)CC2)nc(N2CCN(C(=O)[C@H](CCC(=O)O)n3cc([C@@H](N)CCSC)nn3)CC2)n1	-9%	x	-1.7%	x
COc1cccc(/C=C/C(=O)OCC(=O)NC2CC2)c1OC	1%	x	-1.4%	x
c1ccc(-c2nc[nH]c2-c2ccccc2)cc1	-1%	-1%&2%	10%	-2&-2
O=C(O)Cc1ccc(NS(=O)(=O)c2c(Cl)cccc2Cl)cc1	-9%	3%	0.0%	8
COc1ccc(NC(=S)NC(=O)c2cccnc2)cc1	5%	-5%	1.6%	x
O=C1OC(CC(=O)N(Cc2nnc(-c3ccccc3Cl)o2)C2CC2)c2ccccc21 (stereo not drawn)	1%	x	-0.3%	x
Cc1nc2cc(NC(=O)COc3ccc(C#N)cc3)ccc2n1-c1ccccc1	-12%	-3%	-0.2%	5
CCC(C)(C)n1nnnc1C(c1ccc(OC)cc1)N1CCN(C(=O)c2ccco2)CC1 (stereo not drawn)	-14%	-3%	0.2%	x
Cc1ccc(-c2nn3c(C)nnc3s2)cc1NCc1c(F)cccc1Cl	1%	-4%	0.9%	2
C#CCn1c(=NC(=O)c2sc3ccccc3c2Cl)sc2cc(S(N)(=O)=O)ccc21	21%	-17%	-0.4%	-12
CC(C)CC1C2C(=O)N(c3ccccc3)C(=O)C2ON1c1ccccc1 (stereo not drawn)	8%	0%	0.6%	1
O=C(NCCc1ccccc1)C1CCC(=O)N1CCc1ccccc1 (stereo not drawn)	-22%	-1%	-0.1%	x
Cc1ccc2cc(CCNC(=O)c3cccs3)c(=O)[nH]c2c1	-5%	-68%	-3.8%	6
COc1ccc(/C=N/NC(=O)COc2ccc(Cl)cc2Cl)cc1Cn1nc(C)cc1C	-3%	-12%	1.7%	3
Cc1cccc(N(C(=O)CNC(=O)c2ccco2)C(C(=O)NCC2CCCO2)c2ccccc2)c1 (stereo not drawn)	-3%	9%	-0.1%	0
O=C(CCn1c(=O)oc2ccccc21)Nc1nccs1	9%	-10%	2.9%	0

Complete entries from above.
COc1ccc(C2CC3(O)NC(=O)C(C#N)(C3C)C2(C#N)C#N)cc1 (stereo not drawn) is listed with Rango release inh: -24%; miR-21 FLuc: 2%; Rango-impB inh: -4.9%; GLA inh pH 4.5: 10
Cc1ccc2cc(CCNC(=O)c3cccs3)c(=O)[nH]c2c1 is listed with Rango release inh: -5%; miR-21 FLuc: -68%; Rango-impB inh: -3.8%; GLA inh pH 4.5: 6

Next entries follow.
SMILES	Rango release inh	miR-21 FLuc	Rango-impB inh	GLA inh pH 4.5
Cc1ccc(C(=O)Oc2cccc(NC(=O)c3cccs3)c2)cc1S(=O)(=O)N1CCOCC1	4%	-17%	1.2%	-2
O=C(COC(=O)c1ccc([N+](=O)[O-])cc1)Nc1ccc(Cl)cn1	17%	x	-4.8%	x
Cc1ccc(Nc2nnc(SCc3ccccc3)s2)cc1	-9%	-31%	-5.0%	-4
CCN1CCN(C(=O)/C=C/c2ccc(OC)c(OC)c2)CC1	4%	-1%	-1.9%	x
COC(=O)Cc1c(C)c2ccc(OC3CCCCC3=O)c(C)c2oc1=O (stereo not drawn)	10%	-5%	u	x
O=C(O)[C@H](Cc1ccccc1)NC(=O)N1CCN(c2ccc(F)cc2)CC1	5%	-3%	0.0%	2
CCCCOc1ccc(NC2=NC3(CCCC3)N=C(N)N2)cc1	-6%	4%	u	-1
CCOC(=O)N1CCN(c2nc3ccccc3n3cnnc23)CC1	9%	-7%	6.1%	-1
Cc1noc2ncnc(N3CCN(c4cccc(Cl)c4)CC3)c12	-3%	28%	2.1%	-2
CCOC(=O)/C(=N\Nc1ccccc1)P(=O)(c1ccccc1)c1ccccc1	-6%	4%	u	-13
COc1cc(/C=C/C(=O)c2ccc(F)cc2)cc(OC)c1OC	-1%	u	-0.2%	-6
O=C(c1ccncc1)N1N=C(c2ccc(Cl)cc2)CC1c1ccccc1O (stereo not drawn)	-21%	-60%	-4.9%	x
CN(C(=O)COC(=O)C1CCN(S(=O)(=O)c2ccc3c(c2)OCCO3)CC1)c1ccccc1	17%	x	-4.0%	x
Cc1ccc(C(=O)Nc2ccccc2C(=O)NCc2ccco2)cc1S(=O)(=O)N1CCCCC1	0%	10%	0.4%	-9
O=C(CSc1n[nH]c(-c2ccco2)n1)Nc1ccc(Br)cc1	-7%	7%	-0.7%	x
CCn1c(=O)n(CC)c2cc(N3CCCC3)c(NC(=O)c3ccc(C)c([N+](=O)[O-])c3)cc21	-19%	-3%	-2.8%	x
Cn1c(CSc2nc3ccc(Br)cc3[nH]2)nc2ccccc21	3%	-27%	6.4%	-1
O=C1c2ccccc2C(=O)N1CCc1c(-c2[nH]c3ccccc3c2CCN2C(=O)c3ccccc3C2=O)[nH]c2ccccc12	-7%	x	4.1%	x
CC1=C(C(=O)Nc2ccc(C)cc2)C(c2ccc(N(C)C)cc2)NC(=O)N1 (stereo not drawn)	u	-9%	-0.1%	2
COc1ccc(S(=O)(=O)Nc2cccc3c2O[C@H](CN(C)S(=O)(=O)c2ccc(OC)cc2)[C@@H](C)CN([C@H](C)CO)C3=O)cc1	-1%	x	0.2%	x
CCN1C(=O)/C(=C\N2CCOCC2)SC1=S	0%	-6%	0.6%	-9
O=C1CCCC(=NCc2ccco2)C1	3%	-1%	-7.5%	0
Cc1nn(Cc2ccccc2)c(C)c1/C=N/NC(=O)c1cccnc1	-14%	-15%	3.7%	3
CCOC(=O)c1ccc(N=C2C(=S)N(c3ccc(C(=O)OCC)cc3)C(=N)N2/N=C/c2ccccc2)cc1	16%	-23%	4.7%	-1
CCS(=O)(=O)N1Cc2ccccc2CC1C(=O)N(C)Cc1ccc(OC)c(F)c1 (stereo not drawn)	-12%	-6%	-0.5%	x

(list continues)
SMILES	Rango release inh	miR-21 FLuc	Rango-impB inh	GLA inh pH 4.5
CC(C)CCn1c(CN2CCN(Cc3ccccc3)CC2)nc2c1c(=O)n(C)c(=O)n2C	1%	2%	-5.5%	-10
O=C(NC12CC3CC(CC(C3)C1)C2)c1ccc([N+](=O)[O-])cc1	31%	-15%	7.8%	x
Cc1cc(C)cc(NC(=O)N2c3ccccc3NC(=O)CC2C)c1 (stereo not drawn)	8%	-6%	-0.4%	-17
Nc1nn(-c2ccccc2)c(N)c1N=Nc1ccccc1	10%	-17%	-2.8%	-13
Cc1ccc(C2=N/C(=C\c3cccc(F)c3)C(=O)O2)cc1	4%	0%	0.3%	x
O=C(c1ccccc1)n1nnc2ccccc21	24%	-12%	3.8%	15
COc1cc(COCC(O)CN2CCc3ccccc3C2)cc(OC)c1OC (stereo not drawn)	-2%	0%	1.0%	4
N#CCc1cc2ccc3cccc4ccc(c1)c2c34	-1%	-29%	-1.4%	-4
CCOc1ccc2nc(NC(=O)C(CCSC)NS(=O)(=O)c3cccs3)sc2c1 (stereo not drawn)	8%	21%	-2.4%	-6
Cc1ccc(OCc2n[nH]c(=S)n2Cc2ccccc2)cc1	-1%	1%	1.0%	6

Three entries out of the list above, arranged by their value in GLA inh pH 4.5, low to high:
SMILES	Rango release inh	miR-21 FLuc	Rango-impB inh	GLA inh pH 4.5
Nc1nn(-c2ccccc2)c(N)c1N=Nc1ccccc1	10%	-17%	-2.8%	-13
CC(C)CCn1c(CN2CCN(Cc3ccccc3)CC2)nc2c1c(=O)n(C)c(=O)n2C	1%	2%	-5.5%	-10
CCOc1ccc2nc(NC(=O)C(CCSC)NS(=O)(=O)c3cccs3)sc2c1 (stereo not drawn)	8%	21%	-2.4%	-6

In the list so far, two contain bromine.
SMILES	Rango release inh	miR-21 FLuc	Rango-impB inh	GLA inh pH 4.5
O=C(CSc1n[nH]c(-c2ccco2)n1)Nc1ccc(Br)cc1	-7%	7%	-0.7%	x
Cn1c(CSc2nc3ccc(Br)cc3[nH]2)nc2ccccc21	3%	-27%	6.4%	-1
